Sa growth 42C: S. aureus growth inhibition; S. aureus RN4220 growth, OD600, 20 h, 42 °C; active compounds read low; relative growth, % (test concentration not listed); hit rate 0.53% among 170,000; AID 720641;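 active = growth at 42 °C up to 50% and 20 or more points under that at 30 °C, or under 10% at both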;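 note: 300 nL library stock went into each well; scaled to the means of positive and negative controls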
HCMV NEC inh: cytomegalovirus nuclear egress complex inhibition; AID 1918969; inhibition, % (test concentration not listed); hit rate 0.15% among 190,000; HTRF UL50-UL53 interaction, normalized percent inhibition;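 active = both replicates at 50% or more, plus weaker picks with an unusually low signal ratio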;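 note: stock transfer was 100 nL into about 20 µL; 0% = negative control wells and 100% = wells with untagged competitor protein; inactives centre near -12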
GIV-Gai inh: inhibitors of GIV GBA-motif binding to rat Galpha-i3; hit rate 0.42% among 210,000; percent of control (FP), % (no concentration beside the values); Galpha-i3/FITC-GIV peptide fluorescence polarization, 90 min; active compounds read low; scaled: aluminum fluoride 0%, vehicle 100%;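 active = replicate mean at 85% of control or lower, very high polarization wells dropped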;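 note: wells of about 15 µL received 100 nL stock; the first replicate is given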
Target sequence (P08753 whole entry, looked up): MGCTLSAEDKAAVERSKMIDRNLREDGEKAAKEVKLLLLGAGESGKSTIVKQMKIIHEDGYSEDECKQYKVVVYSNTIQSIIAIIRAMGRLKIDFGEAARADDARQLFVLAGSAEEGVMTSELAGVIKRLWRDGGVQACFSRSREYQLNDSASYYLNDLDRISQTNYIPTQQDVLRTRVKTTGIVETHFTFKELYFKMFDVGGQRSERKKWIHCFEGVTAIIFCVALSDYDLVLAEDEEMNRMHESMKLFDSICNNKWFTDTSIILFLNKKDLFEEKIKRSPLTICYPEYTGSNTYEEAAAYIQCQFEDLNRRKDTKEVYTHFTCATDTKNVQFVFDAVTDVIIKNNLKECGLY
Sa growth 42C second temp: second read-out of Sa growth 42C, no call of its own (marks repeat the call); relative growth, %; measured here: growth at 30 °C;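 optical density after 20 h as mean of two plates; 100% = untreated growth and lower means inhibition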
* hit, by the source's call; nt = no result given; & = joins results of further samples.

Compound | Sa growth 42C | HCMV NEC inh | Sa growth 42C second temp | GIV-Gai inh
Cc1cccc(C(=O)OCc2cc(=O)n3ccsc3n2)c1 | 78.3 | nt | 86.1 | 104.1
Cc1ccc(C2=NN3C(=O)c4ccccc4C3C2)cc1 (stereo not drawn) | 112.7 | -61.9 | 80.8 | 105.2
CCOc1ccc(C(C)(C)C)cc1S(=O)(=O)Nc1cccnc1 | 97.9 | 9.5 | 91.2 | 101.0
O=C(Cc1csc(NC(=O)c2ccccc2)n1)Nc1cccc(Br)c1 | nt | -5.9 | nt | 112.6
Cc1nn(C(=O)Nc2cccc(Cl)c2)c2ccccc12 | nt | -11.7 | nt | 99.3
Cc1ccc(N(CC(=O)N2CCN(c3ccc(Cl)cc3)CC2)S(=O)(=O)c2c(C)nn(C)c2C)cc1 | 102.8 | -11.0 | 88.4 | 103.3
COc1ccc(/C=C2/SC(=Nc3ccccc3)NC2=O)cc1Br | nt | -13.9 | nt | 101.9
CCN(CC)C(=O)c1sc2c(c1C)c(=O)n(-c1ccc(Cl)c(Cl)c1)c(=O)n2Cc1cc(=O)n2c(C)cccc2n1 | 103.4 | nt | 92.6 | 103.1
O=C(Cc1ccccc1)NC1=C(C(=O)c2ccccc2)N(Cc2ccccc2)S(=O)(=O)c2ccccc21 | nt | -16.9 | nt | 103.3
Cc1onc(-c2ccccc2)c1C(=O)N=S(C)(C)=O | 82.4 | -35.2 | 87.8 | 107.4
COc1cc(C(=O)Nc2ccc(O)c(-c3nc4cc(C)ccc4o3)c2)ccc1OCc1ccc(Cl)cc1 | nt | -9.3 | nt | 99.3
CCC(C)c1ccc(NC(=O)COC(=O)C2CCC2)cc1 (stereo not drawn) | 88.0 | 11.0 | 97.8 | nt
CCOC(=O)c1cc(-c2ccccc2)sc1NC(=O)C(C)N1CCN(C(=O)c2ccco2)CC1 (stereo not drawn) | 81.4 | -40.2 | 93.3 | nt
O=C(/C=C/c1ccco1)N(Cc1ccccc1)c1ccccn1 | 92.9 | nt | 81.6 | 118.7
Cc1ccc(-n2c(SCCn3ccnc3)nnc2-c2ccc(Cl)cc2)cc1 | 58.3 | -34.1 | 45.3 | nt
CCN(CC)S(=O)(=O)c1ccc(-c2ccc(/C=N/NC(=O)CNc3ccc(OC)cc3)o2)cc1 | 58.3 | -25.6 | 28.3 | nt
CCOc1ccc(N2C(=O)C3C(C2=O)N2CCCN2C3c2ccc(F)cc2)cc1 (stereo not drawn) | 97.9 | nt | 87.4 | 98.4
Cn1cccc1/C=C1\CCc2ccccc2C1=O | 69.2 | nt | 40.2 | 144.0
CC(=O)N1c2ccc(S(=O)(=O)N3CCC(C(=O)Nc4cccnc4)CC3)cc2CC1C (stereo not drawn) | nt | -16.7 | nt | 109.0
Clc1ccccc1-c1nc2nnnn2c2ccc(Br)cc12 | nt | -17.7 | nt | 97.5
COc1ccc2c3c([nH]c2c1)C(C)(C(=O)O)NCC3 (stereo not drawn) | 106.6 | nt | 94.4 | 149.8
O=c1c2cnn(-c3ccccc3)c2ncn1/N=C/c1ccc(Cl)cc1 | 89.5 | -40.0 | 88.4 | 103.1
Cc1nc2c(c(C)nn2C)c(C)c1CCC(=O)NCc1ccccc1 | 106.3 | 5.3 | 90.4 | 109.0
CCOc1cccc(NC(=O)C2CC(=O)N(C)C(=Nc3ccc(C(=O)OC)cc3)S2)c1 (stereo not drawn) | nt | -7.2 | nt | 106.8
COc1cc(OC)c(NC(=O)C(C)n2nc(-c3ccc(C)cc3)c3c(c2=O)CCCC3)cc1Cl (stereo not drawn) | 99.8 | -12.3&10.0 | 87.3 | 102.8&109.7

Some of these compounds in order of length of the SMILES, lowest first.
Compound | Sa growth 42C | HCMV NEC inh | Sa growth 42C second temp | GIV-Gai inh
Cc1nn(C(=O)Nc2cccc(Cl)c2)c2ccccc12 | nt | -11.7 | nt | 99.3
CC(=O)N1c2ccc(S(=O)(=O)N3CCC(C(=O)Nc4cccnc4)CC3)cc2CC1C (stereo not drawn) | nt | -16.7 | nt | 109.0
CCN(CC)C(=O)c1sc2c(c1C)c(=O)n(-c1ccc(Cl)c(Cl)c1)c(=O)n2Cc1cc(=O)n2c(C)cccc2n1 | 103.4 | nt | 92.6 | 103.1

Continued.
Compound | Sa growth 42C | HCMV NEC inh | Sa growth 42C second temp | GIV-Gai inh
COc1ccccc1C(=O)Nc1c(C(=O)NC(C)(C)C)oc2ccccc12 | 93.6 | nt | 96.4 | 97.8
N#Cc1cc(C(=O)c2ccccc2O)cn2c1nc1ccccc12 | 96.5 | 9.1 | 74.8 | nt
CCOc1ccc(-c2cc(NC(=O)Nc3cccc(C(C)=O)c3)c(C(=O)OC)s2)cc1 | 111.2 | -6.6 | 95.9 | 103.8
CN(C)CCNC(=O)c1c(O)c2c(n(C3CC3)c1=O)CCCC2 | 84.5 | -12.1 | 95.1 | 103.9
OC(CNc1ccccc1Cl)Cn1nnnc1-c1ccccc1 (stereo not drawn) | 96.9 | -0.8 | 83.7 | 106.0
CCc1cc2c3c([nH]c2cc1S(=O)(=O)NC(C)CC)CCCC3=O (stereo not drawn) | 93.6 | -14.8 | 79.9 | 99.9
O=C(CCc1nc(-c2ccc(Cl)cc2)no1)N1CCCC1 | 101.0 | 0.6 | 88.9 | 109.9
CCOC(=O)c1cc(C#N)c(Cl)nc1-c1ccccc1 | nt | -9.7 | nt | 98.5
C1CCN2C[C@@H]3C[C@H](CN4CCCC[C@@H]34)[C@H]2C1 | 100.4 | -14.4 | 89.8 | nt
CCc1ccc(NC(=O)CSC2=NC3C(=O)N(C)C(=O)N(C)C3N2C)cc1 (stereo not drawn) | 94.5 | -10.3 | 91.8 | 102.2
COCCn1c(C)cc(O)c(C(c2ccccc2OC)N2CCCCC2)c1=O (stereo not drawn) | 92.5 | nt | 86.4 | 100.9
Clc1ccc(-c2nc(-c3[nH]ncc3Br)no2)cc1 | 101.3 | 4.7 | 101.8 | 102.7
Nc1nc(SC2c3ccccc3-c3ccccc32)n[nH]1 | 93.7 | -6.4 | 87.8 | 98.3
O=S(=O)(NCc1csc(-c2ccccc2)n1)c1ccccc1 | 89.0 | -25.6 | 81.3 | 103.6
COc1ccc2[nH]cc(CCN3CC(C(=O)Nc4nnc(C(F)(F)F)s4)CC3=O)c2c1 (stereo not drawn) | nt | -12.9 | nt | 104.1
COCCN=c1scc(-c2cccs2)n1/N=C/c1ccc(N2CCOCC2)cc1 | 96.3 | -10.1 | 93.0 | nt
N#CC1(NC(=O)COC(=O)CSc2nc3ccccc3o2)CCCCC1 | 101.9 | 5.7 | 94.1 | nt
COc1ccc(/C=C/C(=O)Nc2ccccc2N2CCCCC2)cc1OC | 102.6 | -37.0 | 75.2 | nt
Cc1ccc(C(=O)Nc2ccc(C(=O)O)cc2)cc1S(=O)(=O)N1CCC(C)CC1 | 100.5 | -13.3 | 94.5 | 107.3
O=C(NCCc1ccccc1)c1ccc(Cn2c(SCc3cccc(F)c3)nc3cccnc32)cc1 | 131.4 | nt | 118.6 | 99.1
CCN1CCCC1CNC(=O)CCCN1C(=O)CCn2nc(C)cc21 (stereo not drawn) | 105.7 | -30.5 | 85.8 | 109.2
Cc1nc(-c2cc(S(=O)(=O)N3CCCC(C(=O)Nc4ccc5c(c4)OCCO5)C3)c(C)s2)no1 (stereo not drawn) | nt | -10.6 | nt | 107.8
COC(=O)c1c(NC(=O)c2ccoc2C)sc2c1CCCCC2 | 122.2 | -13.9 | 95.0 | 105.9
Cc1ccc(C(=O)Nc2ccc(Br)cc2)cc1S(=O)(=O)NCc1ccccc1 | 100.8 | -5.2 | 93.1 | 103.2
COC(=O)CSc1nnc2n(-c3ccc(OC)cc3)c(=O)c3c4c(sc3n12)COC(C)(C)C4 | nt | -9.2 | nt | 102.7
Cc1cccc(NC(=O)C2CCCN(S(=O)(=O)c3cc(-c4noc(C5CCC5)n4)sc3C)C2)n1 (stereo not drawn) | nt | 1.5 | nt | 106.8
CCCCCCCC1N[C@H](C(=O)O)CS1 (stereo partly drawn) | 96.4 | -28.8 | 87.6 | 105.7
CC(Sc1nc(-c2ccccc2)cc(C(F)(F)F)n1)C(N)=O (stereo not drawn) | 80.2 | 18.0 | 98.0 | 105.3

5 of the entries above in order of their number in GIV-Gai inh, low to high.
| canonical_smiles | GIV-Gai inh |
| --- | --- |
| COc1ccccc1C(=O)Nc1c(C(=O)NC(C)(C)C)oc2ccccc12 | 97.8 |
| CCc1cc2c3c([nH]c2cc1S(=O)(=O)NC(C)CC)CCCC3=O (stereo not drawn) | 99.9 |
| Cc1ccc(C(=O)Nc2ccc(Br)cc2)cc1S(=O)(=O)NCc1ccccc1 | 103.2 |
| Cc1cccc(NC(=O)C2CCCN(S(=O)(=O)c3cc(-c4noc(C5CCC5)n4)sc3C)C2)n1 (stereo not drawn) | 106.8 |
| Cc1nc(-c2cc(S(=O)(=O)N3CCCC(C(=O)Nc4ccc5c(c4)OCCO5)C3)c(C)s2)no1 (stereo not drawn) | 107.8 |

Looked up by structure from the entries so far:
Compound | Sa growth 42C | HCMV NEC inh | Sa growth 42C second temp | GIV-Gai inh
CCOc1ccc(-c2cc(NC(=O)Nc3cccc(C(C)=O)c3)c(C(=O)OC)s2)cc1 | 111.2 | -6.6 | 95.9 | 103.8
N#CC1(NC(=O)COC(=O)CSc2nc3ccccc3o2)CCCCC1 | 101.9 | 5.7 | 94.1 | nt
CC(Sc1nc(-c2ccccc2)cc(C(F)(F)F)n1)C(N)=O (stereo not drawn) | 80.2 | 18.0 | 98.0 | 105.3
